# LANA-H2A inh: blockers of LANA interaction with H2A/H2B – biochemical, FP readout, HTS, primary screen | cell-free LANA-H2A/H2B peptide, fluorescence polarization | inhibition, % (test concentration not listed) | 320,000 compounds, 0.6% hits; in the data active = inhibition mostly above about 10%, no sharp cut-off; inactive = mostly below about 6.7%;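 also: stock transfer was 7.5 nL into about 10 µL; 0% = median of vehicle wells and 100% = median of positive control wells; one replicate is shown; the record names a cut of 25% in any replicate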
# ALR inh: inhibitors of human ALR sulfhydryl oxidase, primary screen, biochemical, H2O2 detection, HRP-luminol luminescence, single point; 290,000 compounds, 3.8% hits; purified ALR, DTT oxidation; inhibition, % (test concentration not listed);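 active = mean and each replicate at 75% or more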;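 also: stock transfer was 7.5 nL into about 7.5 µL; 0% = neutral wells and 100% = wells with inactivated enzyme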
# Target sequence (P55789 whole entry, looked up): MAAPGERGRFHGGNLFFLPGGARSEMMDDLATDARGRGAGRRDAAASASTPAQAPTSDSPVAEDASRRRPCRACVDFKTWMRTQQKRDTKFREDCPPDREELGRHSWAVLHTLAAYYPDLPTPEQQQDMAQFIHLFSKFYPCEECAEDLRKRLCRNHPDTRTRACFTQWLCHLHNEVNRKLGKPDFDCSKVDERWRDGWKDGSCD
# UCH37 DUB inh: inhibitors of human UCH37 deubiquitinase, primary screen, biochemical, Ub-AMC cleavage, fluorescence; Ubiquitin carboxyl-terminal hydrolase isozyme L5 (Homo sapiens), Q9Y5K5; purified proteasome/UCH37; inhibition, % (concentration not given with the values); 330,000 compounds, 0.33% hits;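 active = mean of two replicates above 20%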;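 also: 0% = compound-free wells with enzyme and 100% = wells lacking proteasome; stock transfer was 100 nL into about 20 µL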
#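 Material: human UCH37 enzyme supplied as purified proteasome complex. Measure: % inhibition of Ub-AMC cleavage fluorescence. Medium: pH 7.4 Tris-HCl (50 mM) with ovalbumin, ATP-MgCl2, DTT. Times: 30 min preincubation with enzyme, 25 min cleavage at room temperature. Detection: AMC fluorescence intensity at 355/460 nm.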
# Beta2AR agonist: beta2AR agonists driving receptor internalization, primary screen, cell-based, FAP fluorogen, flow cytometry. Beta-2 adrenergic receptor (Homo sapiens), P07550. AID 504454, 2011. response, % (test concentration not listed). Am2.2-beta2AR cells; reference of the scale not given here. 340,000 compounds, 0.43% hits;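 active = response above a set limit, near 3 SD of response in nonfluorescent compounds, cut at about 42% in these data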;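 also: stock transfer was 100 nL into about 11 µL; a reference agonist was the positive control; negative values mostly stem from fluorescent compounds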
# Target sequence (P07550 whole entry, looked up): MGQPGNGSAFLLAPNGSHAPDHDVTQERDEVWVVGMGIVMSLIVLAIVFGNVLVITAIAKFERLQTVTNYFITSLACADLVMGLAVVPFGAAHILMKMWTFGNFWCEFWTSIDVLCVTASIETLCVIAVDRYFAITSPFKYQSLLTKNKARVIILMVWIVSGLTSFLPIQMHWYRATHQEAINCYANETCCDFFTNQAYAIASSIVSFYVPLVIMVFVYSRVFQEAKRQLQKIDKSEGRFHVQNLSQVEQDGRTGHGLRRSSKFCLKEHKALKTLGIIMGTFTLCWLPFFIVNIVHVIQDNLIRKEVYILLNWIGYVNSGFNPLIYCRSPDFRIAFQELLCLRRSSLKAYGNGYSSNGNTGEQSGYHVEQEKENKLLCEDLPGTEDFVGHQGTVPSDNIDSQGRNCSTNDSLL
# HNF4A DNA FP: change in binding of human HNF4A to DNA, primary screen, biochemical, fluorescence polarization, FITC-DNA; 360,000 compounds, 0.3% hits; activity change, % at 10 µM; 1 h; in the data active = activity change above about 30%, passing the limit was not always enough;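 also: controls were the assay level and a saturating level of protein; the project sought stronger binding though the title names inhibitors; some compounds called inactive have numbers as strong as hits; positive values seem to mean higher polarization but the record does not say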
# Ecoli growth: E. coli growth inhibition, primary screen, OD600; Escherichia coli growth, 23 h; hits give low values; OD600 absorbance (test concentration not listed); 330,000 compounds, 0.21% hits;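 active = OD600 absorbance below the run mean of sample wells minus 3.6 SD, in any replicate, cut at about 0.56 in these data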;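 also: stock transfer was 300 nL into about 60 µL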
# FGF22 binding: binders of human FGF22 protein, primary screen, FGF22 synaptogenesis inhibitor project, biophysical, thermal shift, single point; Fibroblast growth factor 22 (Homo sapiens), Q9HCT0; recombinant FGF22 thermal shift, SYPRO orange fluorescence; percent of sucrose octasulfate shift, DMSO zero; calls only at 9.99 µM; 340,000 compounds, 1.5% hits; AID 651658, 2012;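 active = melting point raised past a set limit in the mean and every replicate; three in four hits are not shown here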
# Target sequence (Q9HCT0 whole entry, looked up): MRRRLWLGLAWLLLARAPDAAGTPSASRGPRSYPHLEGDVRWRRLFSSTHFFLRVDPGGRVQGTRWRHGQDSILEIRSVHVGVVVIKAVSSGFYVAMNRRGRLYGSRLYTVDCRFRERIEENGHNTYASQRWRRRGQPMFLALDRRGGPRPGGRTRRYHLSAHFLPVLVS
# * marks the source's active call; other numbers are inactive results; i = inactive; . = no result given. This is a subset, so the mix of outcomes need not match the whole.
smiles	LANA-H2A inh	ALR inh	UCH37 DUB inh	Beta2AR agonist	HNF4A DNA FP	Ecoli growth	FGF22 binding
Cc1cc(NC(=O)CSc2nc(-c3ccccc3)nc3c2c(=O)n(C)c(=O)n3C)no1	3.7	.	1.3	-2	1.5	0.7	i
CCOC(=O)c1nn(-c2ccccc2)c(C#N)c1N	-2.3	1	i	0	-0.6	0.71	i
CSc1c(C#N)sc(=S)n1-c1ccc(C)cc1	0.2	-7	-3.2	5	-1.9	0.65	i
COc1ccc(S(=O)(=O)N2CCC(C(=O)NCCC(=O)NCc3cccc(OC)c3)CC2)cc1	-2.1	-2	3.8	-5	2.2	0.67	i
Cc1nc(NC(=O)CSc2ccccc2N)sc1C	-3.2	-20	5.0	.	.	0.65	i
CC(C)N(CCNCC(O)COc1ccc(C(C)(C)c2ccccc2)cc1)C(C)C (centres undefined)	-1.3	-44	2.9	16	0.9	0.62	i
Cn1c(=O)nc2n(Cc3ccccc3)c3ccccc3cc-2c1=O	0.3	1	-469	-22	3.4	0.68	i
N/C(CS(=O)(=O)c1ccccn1)=N\OC(=O)c1ccccc1Cl	1.9	0	-0.1	0	-1.6	0.71	i
O=C(COc1ncnc2ccccc12)NCC1CCCO1 (centres undefined)	-2.8	1	7.6	-5	0.8	0.7	i
CC(C)c1ccc2c(c1)C(c1ccc(N3CCOCC3)cc1)=NNC(c1cccs1)=N2	-5.1	5	3.0	-13	20	0.67	.
COc1ccc(/C=N/Nc2nc(Nc3ccccc3)nc(N3CCCC3)n2)cc1	6.9	-3	.	7	-3.0	.	i
O=C(O)CCSc1nnc(COc2cccc3cccnc23)n1-c1ccccc1	1.0	.	0.1	-5	0.8	0.69	i
COC(=O)c1c(NC(=O)CN2CCN(S(=O)(=O)c3ccccc3)CC2)sc2c1CCC(C)C2 (centres undefined)	-6.1	5	-4.3	.	.	0.74	.
O=C1CC(c2cccc(Cl)c2)CC(O)=C1C=NC1CCCC1 (centres undefined)	-5.4	-7	-2.1	-5	2.7	0.7	i
O=C(Nc1ccccc1F)Nc1cc(S(=O)(=O)N2CCOCC2)ccc1N1CCCC1	-2.5	.	-0.4	-7	-1.0	0.72	i
Cc1ccc(S(=O)(=O)Nn2c(O)c(C=C3N=c4ccccc4=N3)sc2=S)cc1	-1.5	0	8.5	6	-0.2	0.68	i
O=C(COC(=O)C12CC3CC(CC(C3)C1)C2)NCCCc1ccccc1	-0.9	4	-0.7	-9	0.4	0.7	.
CC1CC(C)CN(CCCNC(=O)Cn2ncn3cccc3c2=O)C1 (centres undefined)	-1.1	.	-0.3	-8	-3.7	0.69	.
Cc1ccccc1NC(=O)CSc1nnc(Cc2cccn2C)n1-c1ccc(F)cc1	-0.3	20	0.8	4	-3.6	0.72	i
COc1cccc(C2=NOC(C(=O)NC3CCCCC3)C2)c1 (centres undefined)	-1.0	-5	3.1	-7	3.0	0.67	.
CCCCC1CC(=O)NC1(C(=O)OCC)C(=O)OCC (centres undefined)	.	.	0.2	6	-2.5	0.68	i
O=S(=O)(NC(=S)c1ccccc1)c1ccccc1	-2.0	-5	5.6	5	0.1	0.63	i
CN(C(=O)CS(=O)(=O)c1cn(CC(=O)N2CCCC2)c2ccccc12)c1ccccc1	-8.0	.	-9.7	2	1.9	0.65	i
COc1ccc(CNC(=O)C(=O)NCC2CCCO2)cc1 (centres undefined)	-1.7	-1	3.5	3	0.2	0.67	.
O=c1[nH]nc(Sc2ncnc3sccc23)n1CCc1ccccc1	0.9	.	6.9	-17	3.5	0.71	.
c1ccc(CN2OCC3Cn4c(nc5ccccc54)C32)cc1 (centres undefined)	2.2	-5	1.1	-11	-4.0	0.7	i
COc1cc(C(=O)Oc2ccccc2N)cc(OC)c1OC	-0.1	49	1.9	-4	4.7	0.82	.
O=C(NCc1cccc2ccsc12)c1cccs1	-4.7	3	-0.3	-7	1.8	0.66	i
O=C(Nc1ccccc1-c1ccccc1)C1CCCC1	0.2	-1	3.7	-5	4.3	0.67	i
COc1cc(C2NC(=O)CCC2[N+](=O)[O-])cc(Br)c1OC (centres undefined)	-1.5	6	-0.9	-3	-2.5	0.64	i
CC(On1c(-c2ccccc2)nc2ccc(Cl)cc21)C(=O)O (centres undefined)	3.2	-8	5.2	1	1.1	0.69	i
CCN1C[C@@H]2[C@@H]3C(=O)N(Cc4ccccc4)C(=O)[C@@H]3[C@](CC)(C1=O)N2C(=O)c1ccc(C(C)(C)C)cc1	.	.	-0.3	1	2.5	.	.
Cc1c(NS(=O)(=O)c2ccc(C(=O)NCc3ccccc3)cc2)c(=O)n(-c2ccccc2)n1C	-2.5	-2	3.6	-4	5.0	0.7	i
CCOC(=O)c1c(NC(=O)CSc2nnc(CNC(=O)c3ccco3)n2C)sc2c1CCC2	-0.6	11	4.2	0	-1.1	0.68	i
CCOC(=O)C1=C(C)N=c2s/c(=C/c3ccc(OCC(=O)O)cc3)c(=O)n2C1c1ccc(OC)cc1OC (centres undefined)	2.0	16	.	7	-1.1	.	.
Cc1c(O)c(=O)n(-c2ccccc2)n1C	7.8	19	2.1	1	0.2	0.72	i
COC(=O)c1ccc(OCC(=O)c2cccc(OC)c2)cc1	-4.1	-9	-1.3	1	-0.1	0.68	i
Cn1c(=O)oc2cc(S(=O)(=O)N3CCCC(C(=O)NCC4COc5ccccc5O4)C3)ccc21 (centres undefined)	2.4	-2	7.6	29	2.6	0.72	i
CC(=O)Nc1ccc(OCC(O)Cn2c(C)nc3ccccc32)cc1 (centres undefined)	-0.6	-23	0.8	0	0.0	0.67	.
CCCC1OC(c2cc3c(cc2Cl)OCO3)OCC1CC (centres undefined)	.	.	5.6	3	-1.5	0.73	i

# Already shown: entries from further up.
smiles	LANA-H2A inh	ALR inh	UCH37 DUB inh	Beta2AR agonist	HNF4A DNA FP	Ecoli growth	FGF22 binding
CC(=O)Nc1ccc(OCC(O)Cn2c(C)nc3ccccc32)cc1 (centres undefined)	-0.6	-23	0.8	0	0.0	0.67	.
CCCC1OC(c2cc3c(cc2Cl)OCO3)OCC1CC (centres undefined)	.	.	5.6	3	-1.5	0.73	i

# Compounds shown so far containing a thiophene ring, fused or not, in the order listed:
smiles	LANA-H2A inh	ALR inh	UCH37 DUB inh	Beta2AR agonist	HNF4A DNA FP	Ecoli growth	FGF22 binding
CC(C)c1ccc2c(c1)C(c1ccc(N3CCOCC3)cc1)=NNC(c1cccs1)=N2	-5.1	5	3.0	-13	20	0.67	.
COC(=O)c1c(NC(=O)CN2CCN(S(=O)(=O)c3ccccc3)CC2)sc2c1CCC(C)C2 (centres undefined)	-6.1	5	-4.3	.	.	0.74	.
O=c1[nH]nc(Sc2ncnc3sccc23)n1CCc1ccccc1	0.9	.	6.9	-17	3.5	0.71	.
O=C(NCc1cccc2ccsc12)c1cccs1	-4.7	3	-0.3	-7	1.8	0.66	i
CCOC(=O)c1c(NC(=O)CSc2nnc(CNC(=O)c3ccco3)n2C)sc2c1CCC2	-0.6	11	4.2	0	-1.1	0.68	i

# The list continues:
smiles	LANA-H2A inh	ALR inh	UCH37 DUB inh	Beta2AR agonist	HNF4A DNA FP	Ecoli growth	FGF22 binding
CCSCCNC(=O)c1cc(-n2cnnc2)ccc1Cl	0.6	-4	1.3	5	-1.5	0.74	.
S=c1[nH]nc(CSCCOc2ccc(Cl)cc2Cl)o1	-1.4	68	-3.0	7	2.4	0.67	.
CCCn1c(Cc2ccccc2)n[nH]c1=S	0.9	31	2.6	5	-1.3	0.77	.
Cc1cccc(N(C(=O)c2snc(C(N)=O)c2N)C(C(=O)NCC2CCCO2)c2cccs2)c1 (centres undefined)	0.6	-4	-78	10	2.8	0.69	i
Cc1noc(C)c1Cc1c(Cl)cccc1Cl	-1.5	9	4.6	-10	0.7	0.73	.
O=C(c1ccc(CNS(=O)(=O)c2ccc(Br)cc2)cc1)N1CCCCC1	0.9	-5	3.1	-12	-1.1	0.66	i
CCOC(=O)Cn1c(=O)c(F)cn(Cc2ccc(OC)c([N+](=O)[O-])c2)c1=O	-1.9	1	0.1	-8	-5.0	0.68	i
CCOCCCNC(=O)c1ccc(-n2c(=S)[nH]c3ccccc3c2=O)cc1	1.8	84*	1.6	8	3.4	0.73	i
CC1(C)CC(=O)C=C(NNC(=O)c2ccccc2)C1	1.0	22	2.2	-3	-2.4	0.7	.
Cc1cc(C)c(C)c(S(=O)(=O)NCC(=O)Nc2sc3c(c2C(N)=O)CCCC3)c1C	-0.1	-15	-2.2	5	2.4	0.72	.
NC(=O)/C(=C\c1ccccc1)NC(=O)/C=C/c1ccccc1	1.0	8	2.9	-1	-1.8	.	.
COc1cccc(C(=O)OCC(=O)Nc2ccccc2N2CCOCC2)c1	-2.8	5	3.6	0	1.9	0.7	.
Cc1cc(N2CCN(C)CC2)nc2ccc(NC(=O)CCC(=O)N3CCN(c4ccc([N+](=O)[O-])cc4)CC3)cc12	3.2	21	7.2	32	3.1	0.67	i
CCC(NS(=O)(=O)c1ccc(C)cc1)C(=O)N1CCC2(O)CCCCC2C1 (centres undefined)	-5.5	-3	1.7	-4	-1.1	0.72	.
CCCCOc1ccc(C(=O)NCC(=O)N(C)CC(=O)Nc2ccc(N3CCOCC3)cc2)cc1	-1.9	41	1.6	-3	1.9	0.7	i
CSC1=NC(C)(C)C=C(/C=C/c2ccc(Cl)cc2Cl)N1	-5.4	20	1.1	12	-1.6	0.7	i
CCOC(=O)c1nnc(-c2ccc(C)cc2)nc1Sc1ccc(Cl)cc1	0.8	0	6.3	2	0.8	0.75	.
CCCn1nnnc1NC(=O)COc1ccc(CC)cc1	2.4	0	4.2	-2	1.2	0.68	.
COc1ccccc1/C=C/C=N/NC(=O)c1ccncc1	1.3	-8	.	-2	-4.1	.	i
Cc1ncoc1C(=O)NCCC(c1ccccc1)c1ccccc1	-1.3	.	0.8	0	0.5	0.72	i
Cc1cccc(-c2noc(CCC(=O)NCC3CCCO3)n2)c1 (centres undefined)	.	.	4.4	2	-3.1	0.67	.
CCn1c(CNC(=O)COc2c(C)cccc2C)nnc1SCC(=O)Nc1nccs1	2.3	-4	6.4	-6	3.1	0.66	.
O=C(NCc1ccccn1)c1cccn1-c1ncc(C(F)(F)F)cc1Cl	-4.2	-12	0.3	-10	-6.2	0.65	i
O=C(CCOc1ccccc1)Nc1ccc(S(=O)(=O)Nc2ncccn2)cc1	.	.	-0.3	1	4.0	0.68	i
CC(=O)Nc1ccc(NC(=O)CCCNC(=O)c2ccc(Cl)cc2)cc1	1.9	1	-0.1	-28	-1.4	0.66	i
O=C(NCc1cn2ccsc2n1)c1c(F)cccc1Cl	5.0	-4	5.3	1	-2.6	0.78	i
CCOc1cc(N2CCOCC2)c(OCC)cc1NC(=O)c1c(C)noc1C	.	.	6.1	5	4.1	0.66	i
COc1ccc(C(=O)NCC(=O)NCC(=O)OCc2ccc(Cl)cc2)cc1	0.2	-7	3.2	-4	-4.0	0.64	i
O=S(=O)(c1ccc(Oc2ccc(S(=O)(=O)N(CCO)CCO)cc2)cc1)N(CCO)CCO	-0.6	-9	-1.6	-2	-1.7	0.71	i
CCC(C)Sc1nnc(CNC(=O)C23CC4CC(CC(C4)C2)C3)n1C1CCCCC1 (centres undefined)	-3.5	-6	0.6	-1	-3.0	0.72	.
Cn1c(/C(C#N)=C(\O)c2cc(Cl)sc2Cl)nc2ccccc21	-0.4	-5	-8.5	-22	1.3	0.66	i
